# High-throughput results from PubChem.
# GLA inh pH 4.5 – qHTS Assay for Inhibitors of Human alpha-Galactosidase at pH 4.5; Alpha-galactosidase A (Homo sapiens), P06280; purified enzyme, 4-MU-alpha-Gal fluorescence, pH 4.5; activity change, negative = inhibition, % at 105 µM; 230,000 tested, under 10 active; inconclusive = small, poorly fitted or top-dose-only inhibition, or a rising curve; inactive = flat fitted curve, though single readings scatter; no compound was filed as active;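 also: 0% = full activity with enzyme and -100% = basal without enzyme; dose as in the result columns while the protocol names 77 µM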
# miR-21 reporter – qHTS Assay for Modulators of miRNAs and/orActivators of miR-21; 340,000 tested, under 10 active; AID 2288, 2010; Potency, µM (top dose mostly 38.3 µM), for inactives: at the highest dose reporter change, positive = more light; HeLa miR-21 FLuc reporter, luciferase, 48 h; active = well fitted rising curve with a large enough effect; inconclusive = small, poorly fitted or top-dose-only effect; inactive = no such curve, though single readings can be large or run the other way;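 also: % of control where 0% means no effect; miR-21 action dims this reporter so a rising signal means less miR-21 action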
#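 HeLa cells endogenously expressing miR-21, stably carrying CMV-driven firefly luciferase with a downstream miR-21 binding site, 2000 cells/well. Titrations up to approximately 40 uM, 48 hours; luciferase luminescence read.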
# Rango release inh – qHTS Assay for Inhibitors of RanGTP induced Rango (Ran-regulated importin-beta cargo) - Importin beta complex dissociation; Biochemical FRET Rango-importin beta, RanGTP-induced dissociation; 0.071% of 340,000 active; Snurportin-1 (Homo sapiens) + GTP-binding nuclear protein Ran (Homo sapiens) + Importin …; Potency, µM (doses to about 46.1 µM), for the others: at the top dose activity change, negative = inhibition; active means falling FRET ratio curve, often poorly fitted, with flat reads before Ran was added; inconclusive means other falling curves, or compound fluorescence or quenching; inactive means flat or rising ratio curve;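 also: potency is read from the fitted curve at half-maximal effect; % of control where 0% means no effect; nearly all actives have a fitted effect of over 45% in size; -100% = wells without RanGTP and RCC1; the record marks most hits as doubtful in a second field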
#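 Recombinant Rango FRET biosensor (EYFP–snurportin 1 IBB–cerulean CFP10) at 0.1 uM premixed with 0.25 uM importin beta in PBS, 1 mM DTT, 0.02% Tween-20, 0.1% BSA. Compound added 5 min; RanGTP-RCC1 (0.6 uM Ran, 2 mM GTP, 0.2 uM RCC1) then triggers release, read at 45 min.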
# Rango-impB inh – qHTS Assay for Inhibitors of Rango (Ran-regulated importin-beta cargo) - Importin beta complex formation. Importin subunit beta-1 (Homo sapiens), Q14974. Rango CFP/YFP FRET sensor + importin beta, 45 min. Potency, µM (titrated, usually from 92.2 µM), for inactives: top-dose inhibition of complex formation. 0.031% of 340,000 active. AID 540263, 2011; active = rising FRET ratio curve, often small or poorly fitted; inconclusive = mostly compound fluorescence or quenching in the first reads; inactive = flat curves in all reads;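 also: potency is read from the fitted curve at half-maximal effect; 0% = DMSO wells and 100% = buffer wells lacking importin beta; nearly all actives have a fitted effect of over 15% in size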
# Target sequence (Q14974 whole entry, looked up): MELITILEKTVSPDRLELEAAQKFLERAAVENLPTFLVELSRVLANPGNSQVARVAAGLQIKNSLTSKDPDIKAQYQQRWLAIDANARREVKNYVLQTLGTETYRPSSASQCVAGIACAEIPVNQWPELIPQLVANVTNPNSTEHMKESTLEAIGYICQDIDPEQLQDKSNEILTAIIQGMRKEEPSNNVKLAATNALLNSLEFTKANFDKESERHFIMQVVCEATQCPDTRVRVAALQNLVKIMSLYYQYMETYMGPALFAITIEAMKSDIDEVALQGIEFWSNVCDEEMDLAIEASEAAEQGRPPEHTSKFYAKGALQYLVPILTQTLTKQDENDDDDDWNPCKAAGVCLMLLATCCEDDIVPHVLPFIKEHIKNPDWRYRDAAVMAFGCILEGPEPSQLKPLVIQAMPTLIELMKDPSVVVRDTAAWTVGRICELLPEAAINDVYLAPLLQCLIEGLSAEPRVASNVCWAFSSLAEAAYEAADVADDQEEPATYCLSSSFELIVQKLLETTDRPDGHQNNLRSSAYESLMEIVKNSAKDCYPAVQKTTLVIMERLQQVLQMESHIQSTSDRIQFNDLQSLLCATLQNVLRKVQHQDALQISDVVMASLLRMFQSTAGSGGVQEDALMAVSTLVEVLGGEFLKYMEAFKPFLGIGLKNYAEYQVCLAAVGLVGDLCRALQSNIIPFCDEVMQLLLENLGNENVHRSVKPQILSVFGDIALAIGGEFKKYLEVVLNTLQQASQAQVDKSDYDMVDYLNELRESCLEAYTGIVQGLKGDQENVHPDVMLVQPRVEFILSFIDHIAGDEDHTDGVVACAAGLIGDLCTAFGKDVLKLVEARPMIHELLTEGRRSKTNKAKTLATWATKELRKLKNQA
#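 FRET biosensor Rango (snurportin 1 IBB between N-terminal EYFP and C-terminal Cerulean), 50 nM in PBS/1 mM DTT/0.02% Tween-20/0.1% BSA, preincubated 5 min RT with compound; 0.125 microM importin beta added, 45 min RT, CFP/YFP FRET ratio read.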
# * marks the source's active call; other numbers are inactive results; ? = inconclusive; . = no result given; & = joins results of further samples. An excerpt, so the mix of outcomes need not match the whole.
# Results follow in this order: miR-21 reporter, Rango-impB inh, Rango release inh, GLA inh pH 4.5
COc1ccccc1NC(=O)COC(=O)c1ccc2c(c1)nc(C)n2-c1ccccc1
  -21%, -2.8%, 1%, 3
c1ccc(C2c3[nH]c4ccccc4c3CCN2Cc2cccn2-c2cccnc2)nc1 (centres undefined)
  -7%, ?, -28%, -3
CCOC(=O)C1CCN(S(=O)(=O)c2c(C)noc2C)CC1
  1%, -1.2%, -13%, .
O=C1CCCN1c1ccc(S(=O)(=O)NCc2ccco2)cc1
  2%, -0.2%, -9%, 2
CC1CN(C(=O)/C=C/c2ccc([N+](=O)[O-])s2)CC(C)O1 (centres undefined)
  ?, -4.3%, -27%, -3
Cc1ccc(C(=O)N2CC(=O)NC(=O)C2)cc1
  -3%, -0.6%, 0%, .
N#CCCN(Cc1cccnc1)C(=S)Nc1ccc(OC(F)F)cc1
  -1%, -0.7%, -6%, -5
O=C(Cn1c(C(F)(F)F)nc2ccccc21)N/N=C/c1ccco1
  0%, 3.1%, 1%, -7
CCOC(=O)CCNC(=O)N1CCCC(CCC(=O)N(C)CCc2ccccn2)C1 (centres undefined)
  0%, -2.4%, 10%, -28
COc1ccc(NC(=O)CSc2nncn2N)c(OC)c1
  1%, ?, 22%, .
COc1cc(C)nc(N(Cc2ccccc2)S(=O)(=O)c2ccccc2)n1
  -4%, -5.2%, 9%, -2
Cc1cc(NC(=O)C(C)SCC(=O)OCC(=O)N(Cc2ccccc2)C(C)(C)C)no1 (centres undefined)
  3%, -3.9%, 0%, .
O=C(O)CCn1[nH]c(=O)c2ccccc2c1=O
  -4%, 2.5%, -10%, 7
CC(=O)Nc1cccc(Cn2cccn2)c1
  -8%, ., ., 7
CS(=O)(=O)C1=NN2C(=N)/C(=C\c3ccc(OC(=O)c4ccco4)cc3)C(=O)N=C2S1
  2%, -2.9%, ?, .
CCOc1ccc(S(=O)(=O)NCC(c2ccc3c(c2)OCO3)N2CCN(C)CC2)cc1 (centres undefined)
  ., 2.6%, 6%, .
O=C1CC(N(O)c2ccccc2)C(=O)N1Cc1ccccc1 (centres undefined)
  -7%, -2.6%, 1%, 5
OC(CNCC1CCCO1)Cn1c2ccccc2c2ccccc21 (centres undefined)
  -23%, -0.7%, 5%, 8
Cc1cc(O)c(C(C)C)cc1NC(=O)Nc1ccc([N+](=O)[O-])cc1
  ., 0.3%, 10%, .
CCCn1c(SCc2ccc(Cl)cc2)nc2c1c(=O)[nH]c(=O)n2C
  -39%, 3.2%, 10%, 3
O=C(Nc1ccc2ccccc2c1)NC1CCS(=O)(=O)C1 (centres undefined)
  -19%, -3.9%, 20%, -1
COc1ccc(OC)c(C(O)c2nc3ccccc3n2C(C)C)c1 (centres undefined)
  -6%, 2.6%, -21%, 0
COc1cccc(CN(C(=O)c2cccs2)C2CCS(=O)(=O)C2)c1 (centres undefined)
  -7%, -2.7%, -7%, .
O=C1CCC(=O)N1c1ccc(S(=O)(=O)Nc2cccc(Br)c2)cc1
  -1%, -1.9%, -8%, .
O=C(/C=C/c1ccco1)NC1=NCCS1
  -48%, 3.7%, 0%, 4
CCOC(=O)Nc1cccc(Nc2ccccc2)c1
  -27%, -2.9%, 0%, -2
COc1ccc(N(CC(=O)N2CCOCC2)S(=O)(=O)c2ccccc2)cc1Cl
  -3%, -0.3%, 4%, .
COc1ccc([C@H]2CC(=O)C=C(c3cccc(Br)c3)C2)cc1OC
  ., -0.7%, 10%, .
O=C(Cn1c(NCCO)nc2ccccc21)c1ccc([N+](=O)[O-])cc1
  1%, -2.9%, -16%, .
O=C(CCC(=O)N1CCN(C(=O)c2ccco2)CC1)c1ccc(F)cc1
  2%, -4.1%, 6%, 3
CCOC(=O)C1CCN(S(=O)(=O)c2ccc(NC(=O)OC)cc2)CC1
  2%, -1.2%, 11%, -7
C/C(=N\N=C1\NC(=O)CC(C(=O)O)S1)c1ccc(F)cc1 (centres undefined)
  -8%, 1.2%, -1%, 1
CC(=O)Nc1c(I)c(NC(C)=O)c(I)c(C(=O)O)c1I
  -1%&-2%, -0.1%&-1.4%, -6%&3%, 2
CC(C)C(NC(=O)c1ccc(Cl)cc1)C(=O)NCC1CCCO1 (centres undefined)
  -1%, 4.7%, -2%, .
Cc1sc2c(c1C)C(=O)/C(=C\Nc1ccncc1)S(=O)(=O)N2C
  -7%, -0.6%, 2%, -11
CCOC(=S)SCC(=O)Nc1nc(-c2ccc(Br)cc2)cs1
  14%, 1.2%, -9%, 2
CC(CN1CCN(C)CC1)OC(=O)c1ccccc1Cl (centres undefined)
  -3%, 0.7%, 10%, 8
CS(=O)(=O)c1ccc(Sc2nc3ccccc3s2)c([N+](=O)[O-])c1
  ?, 0.4%, 6%, -4
CS(=O)(=O)N1CCN(C2CCN(Cc3ccccc3)CC2)CC1
  2%, -2.9%, 2%, -3
CCCCN(C(=O)c1cc(Cl)nc2ccccc12)c1c(N)n(Cc2ccccc2)c(=O)[nH]c1=O
  ., 4.2%, -16%, .

# A second format for part of the listing above.
SMILES | miR-21 reporter | Rango-impB inh | Rango release inh | GLA inh pH 4.5
CC(=O)Nc1c(I)c(NC(C)=O)c(I)c(C(=O)O)c1I | -1%&-2% | -0.1%&-1.4% | -6%&3% | 2
CC(C)C(NC(=O)c1ccc(Cl)cc1)C(=O)NCC1CCCO1 (centres undefined) | -1% | 4.7% | -2% | .

# Next section
# Results follow in this order: miR-21 reporter, Rango-impB inh, Rango release inh, GLA inh pH 4.5
C=C(C)CSc1nnc([C@@H]2CCCN2)o1
  -6%, -0.6%, -7%, -2
COc1ccc(CCNC(=O)Cn2c(=O)n(-c3ccc(C)c(F)c3)c(=O)c3sccc32)cc1OC
  19%, -2.2%, -11%, 4
C=CCC[C@@H](Cc1ccc(F)cc1)C(=O)OCCNC(=O)[C@@H](CC=C)CC(=O)N[C@@H](CO)Cc1ccccc1
  ., -0.6%, 10%, .
CC(C)=CCN1CCN(Cc2cccc3c2OCO3)CC1CCO (centres undefined)
  -3%, 0.4%, 0%, 7
Cc1cc2nn(-c3ccc(F)cc3)nc2cc1N
  -47%, ?, 9.2µM*, .
CCOC(=O)Cc1nnc(NC(=O)C(CC)Sc2nncn2C)s1 (centres undefined)
  -1%, -4.9%, 2%, -7
CCOc1ccc(S(=O)(=O)Nc2ccc(C(=O)NCC(c3ccccc3)N(C)C)cc2)cc1 (centres undefined)
  2%, -3.3%, -6%, .
COc1ccc(/C=N/NC(=O)Nc2cccc3nsnc23)cc1
  -12%, ?, ?, -1
CCCCNc1c([N+](=O)[O-])cc(C(=O)O)cc1[N+](=O)[O-]
  -18%, -2.2%, -1%, 0
Nc1cc(=O)[nH]c(=O)n1CCCc1ccccc1
  ., -2.8%, -15%, .
COc1ccc(NC(=O)c2cc(S(=O)(=O)N3CCCCC3)c[nH]2)cc1
  3%, -5.0%, 24%, .
O=C(O)[C@H](Cc1ccccc1)NC(=O)N1CCOCC1
  1%, -1.3%, 12%, 5
Cc1ccccc1NC(=O)C1CCCN(C(=O)NCc2ccccc2)C1 (centres undefined)
  0%, -0.2%, -6%, .
CCN(CC)CC(=O)Nc1scc2c1c(=O)oc1ccccc12
  -18%, 4.8%, 12%, 0
COc1ccc(C(CCN2CCCC2)c2c(OC)cc(OC)c3c(-c4ccccc4)cc(=O)oc23)cc1 (centres undefined)
  25%, -2.8%, 6%, -8
Cc1nn(C)c(Cl)c1C(=O)NC(C(=O)O)c1ccccc1 (centres undefined)
  1%, -0.7%, -10%, -1
O=C(c1ccncc1)N1CCN(S(=O)(=O)c2ccc(OC(F)(F)F)cc2)CC1
  ., 5.7%, -18%, .
O=C(CN1CCCCC1)Nc1cc(Cl)ccc1Cl
  -2%, 0.9%, 8%, 0
CC1C/C(=N/Nc2ccc([N+](=O)[O-])cc2[N+](=O)[O-])CC(C)(C)C1 (centres undefined)
  -2%, -2.4%, -8%, -6
COc1ccc(CC(=O)NCc2ccco2)cc1OC
  1%, -0.6%, 6%, -2
Cc1ccc2nsnc2c1NC(=O)COc1ccccc1
  1%, 1.3%, -14%, 3
CCC(C)NC(=O)C(Cc1ccccc1)n1cccc1 (centres undefined)
  -3%, -2.2%, -3%, 3
C=CCn1cnc2scc(-c3ccc(C)cc3)c2c1=O
  -6%, -3.9%, -4%, 8
Cc1cc(OC(C)C(=O)NCc2ccccn2)c2c(C)cc(=O)oc2c1 (centres undefined)
  -1%, ?, 0%, .
CCCC(=O)Nc1ccc(NC(=S)NC(=O)c2ccccc2[N+](=O)[O-])cc1
  7%, 0.0%, -10%, 0
O=C(NC(=S)Nc1ccc(-c2ccccc2)cc1)c1ccccc1
  ., 1.6%, -3%, .
Cc1occc1-c1nnc(SCC(=O)N2CCCCC2C)o1 (centres undefined)
  ., 0.8%, -14%, .
COc1ccc(NC(=O)c2ccc(Cc3ccc(C)cc3)o2)cc1
  -19%, 0.7%, 0%, 3
O=C1c2ccc3c4c(ccc(c24)C(=O)N1c1ccc2ccccc2c1)CC3
  -4%, 1.4%, 18%, -6
O=C1CCCC2=C1C(c1ccc(O)cc1)c1c(ccc3ccccc13)N2 (centres undefined)
  0%, -1.0%, -6%, 2

# Part of the list above, showing only miR-21 reporter, Rango release inh and Rango-impB inh.
SMILES	miR-21 reporter	Rango release inh	Rango-impB inh
CCOc1ccc(S(=O)(=O)Nc2ccc(C(=O)NCC(c3ccccc3)N(C)C)cc2)cc1 (centres undefined)	2%	-6%	-3.3%
O=C(Cn1c(C(F)(F)F)nc2ccccc21)N/N=C/c1ccco1	0%	1%	3.1%

# Following part:
# Results follow in this order: miR-21 reporter, Rango-impB inh, Rango release inh, GLA inh pH 4.5
CC(Sc1nnc(-c2ccccc2F)n1N)C(=O)NCC1CCCO1 (centres undefined)
  ., 2.2%, 15%, .
Cc1cc(=O)oc2cc(OCC(=O)N/N=C/c3cc([N+](=O)[O-])ccc3O)ccc12
  -1%, 4.0%, ?, -7
Cc1ccc(C2=NC3(CCCCC3)N=C2SCC(=O)Nc2ccc3c(c2)OCCO3)cc1
  1%, -4.0%, 0%, -1
CSc1ncccc1C(=O)Nc1cccc(S(=O)(=O)N2CCOCC2)c1
  ., -0.6%, 10%, .
Cc1ccc(CN2CCN(/N=C/c3ccc(C(F)(F)F)cc3)CC2)c(C)c1
  4%, -5.0%, 22%, -26
CC1CCCCN1C(=O)CSc1nc2ccccc2n1CC(=O)N1CCc2ccccc21 (centres undefined)
  -9%, -3.1%, -1%, -1
CCOc1cc2[nH]c(=O)n(CCCCC(=O)NCc3ccco3)c(=O)c2cc1OCC
  0%, -0.2%, -22%, 1
COc1ccc(C(=O)C2CCCN(C(=O)c3csc(C(C)=O)c3)C2)c(C)c1 (centres undefined)
  5%, -3.2%, 3%, .
Cc1nc(NC(=O)C(Cl)Cl)sc1C(=O)N(C)C
  0%, 1.9%, -10%, 1
Cc1cc2ncn(CS(C)(=O)=O)c2cc1C
  0%, -3.2%, ?, 2
COc1ccc(-c2noc(CCC(=O)Nc3cccc(C)c3)n2)cc1
  -1%, -4.3%, 10%, -8
Cc1ccc(-c2noc(CCC(=O)NCCc3ccccc3Cl)n2)cc1
  -2%, 1.3%, -4%, 1
O=C(CCl)N(CCCNC(=O)C(F)(F)F)c1ccc([N+](=O)[O-])cc1
  ?, 5.0%, -1%, 5
C/C(=N/NS(=O)(=O)c1ccc(Cl)cc1)c1cccc(NC(=O)c2ccc(Cl)cc2Cl)c1
  -27%, -0.4%, 4%, 0
COc1cc(NC(=O)CSc2nc(C)c(C)c(C)n2)c(C)cc1[N+](=O)[O-]
  -3%, -0.2%, -2%, -12
O=C(NNC(=S)Nc1cccc(C(F)(F)F)c1)c1ccccc1Cl
  -13%, 4.0%, -10%, 7
COc1ccc(C(CNC(=O)c2cc3c(s2)CCC(C)C3)N2CCOCC2)cc1 (centres undefined)
  ., 8.0%, -6%, .
CSc1nn2cc(CCN3CCOCC3)c(-c3ccc(F)cc3)nc2c1C#N
  8%, 0.3%, -4%, -12
